GPR55 beta-arrestin: GPR55 agonists via beta-arrestin recruitment, primary screen, imaging, U2OS cells, beta-arrestin-GFP redistribution (AID 1961); G-protein coupled receptor 55 (Homo sapiens); U2OS GPR55 beta-arrestin-GFP redistribution imaging; higher % means a stronger effect; activation, % at 10 µM; hits with a dose series show EC50 in µM; 290,000 compounds, 0.048% hits;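 active = activation above 40% with more than 50 cells counted in the well; inconclusive = wells holding fewer than 50 cells, flagged as toxic or sparse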;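 note: U2OS osteosarcoma cells stably expressing GPR55 and beta-arrestin-GFP; plate controls were DMSO negative control for no effect and LPI positive control for full effect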
M17LAP inhibition: P. falciparum M17LAP inhibitors, primary screen, biochemical, fluorogenic H-Leu-NHMec substrate, 1536-well (AID 1619); Leucine aminopeptidase (Plasmodium falciparum (isolate 3D7)); 220,000 compounds, 0.38% hits; recombinant M17LAP, H-Leu-NHMec fluorogenic kinetic assay; higher % means a stronger effect; inhibition, % at 30 µM; hits with a dose series show IC50 in µM;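 active = compound inhibiting the enzyme by more than half at any dose during confirmatory dose-response retesting; inconclusive = strong single-dose inhibitors picked by rank but not retested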;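 note: plate controls were full reaction with DMSO carrier for no effect and no enzyme background for full effect; strong numbers were not always called active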
AID2073: inhibitors of Mint1-CaV2.2 protein interaction, biochemical, HTRF (AID 2073); Voltage-dependent N-type calcium channel subunit alpha-1B (Homo sapiens); HTRF protein-protein interaction, Mint1-CaV2.2; higher % means a stronger effect; inhibition, % at 20 µM; hits with a dose series show IC50 in µM; 290,000 compounds, 0.19% hits; in the data active = inhibition mostly above about 51%, no sharp cut-off; inconclusive = no clear call, values can overlap the other calls; inactive = mostly below about 53%; note: some results filed as inactive read as strong as hits
M1AAP inhibition: P. falciparum M1AAP inhibitors, biochemical, fluorogenic H-Leu-NHMec substrate, 1536-well (AID 1445). inhibition, % at 30 µM; hits with a dose series show IC50 in µM. 220,000 compounds, 0.42% hits. Aminopeptidase N (Plasmodium falciparum (isolate 3D7)). recombinant M1AAP, H-Leu-NHMec fluorogenic kinetic assay; higher % means a stronger effect;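 active = primary inhibition above the hit cutoff, then over 50% inhibition at one or more dose response concentrations, cut at about 23% in these data, passing the limit was not always enough; inconclusive = conflicting primary data, or primary hits not chosen for dose response; inactive = low primary inhibition, or under 50% at every dose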;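 note: plate controls were DMSO full reaction for no effect and no enzyme background for full effect; strong numbers were not always called active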
KOR beta-arrestin-1: KOR agonists, beta-arrestin recruitment, primary screen, cell-based, luminescence, uHTS (AID 1777). Kappa-type opioid receptor (Homo sapiens). 280,000 compounds, 0.02% hits. activation, % at 10 µM, or EC50 in µM where a hit was titrated. KOR beta-arrestin recruitment, luminescence; higher % means a stronger effect; in the data active = activation above about 50%, passing the limit was not always enough; note: a part of the inactive calls stands beside numbers as strong as those of hits
KOR beta-arrestin-2: KOR antagonists, beta-arrestin recruitment, cell-based, luminescence, uHTS (AID 1778); 290,000 compounds, 0.091% hits; one-dose inhibition, % at 10 µM; IC50 in µM for titrated hits; Kappa-type opioid receptor (Homo sapiens); KOR beta-arrestin recruitment, luminescence, antagonist mode; higher % means a stronger effect; in the data active = inhibition above about 50%; note: strong numbers were not always called active
Dynein transport: inhibitors of GR-EGFP nuclear translocation, primary screen, dynein cargo transport inhibitor project, imaging, high-content, 3617.4 mouse cells. test concentration mostly 20 µM; stimulated with dexamethasone, 1 µM; hits give low values. z-score, hits read low. 220,000 compounds, 0.47% hits;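 active = plate z-score of nuclear minus cytoplasmic receptor signal below a set negative limit, without overly bright fluorescence or cell loss, cut at about -3.5 in these data, passing the limit was not always enough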;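 note: z-score of nuclear minus cytoplasmic ring GR-EGFP intensity difference per well; some compounds called inactive have numbers as strong as hits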
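medium = tetracycline-free induction medium containing charcoal-stripped FBS | also added = 1.0 µM final dexamethasone stimulus | schedule = 48 h induction, 1 h compound, 30 min dex at 37 °C | technique = fixed, Hoechst-stained cells imaged at 10x for EGFP | measure = GR-EGFP nuclear translocation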
Dynein transport cytoplasmic EGFP: further read-out of Dynein transport, marked with its call; z-score; measured here: cytoplasmic GR-EGFP intensity; hits give high values
Dynein transport nuclear GR-EGFP: second read-out of Dynein transport, no call of its own (marks repeat the call); z-score; measured here: nuclear GR-EGFP intensity;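 lower value marks the stronger effect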
Dynein transport cell count: also measured in Dynein transport; calls as there; z-score; measured here: cell count per field
* = called active by the depositor; ? = inconclusive; nt = not tested or not shown; [ ] = dose if it differs, or a comment. The list is partial; count on the stated rates, not on these rows.

Values run as follows: GPR55 beta-arrestin, Dynein transport, Dynein transport nuclear GR-EGFP, M17LAP inhibition, KOR beta-arrestin-2, M1AAP inhibition, Dynein transport cytoplasmic EGFP, AID2073, KOR beta-arrestin-1, Dynein transport cell count
O=[N+]([O-])c1ccc(N2CCN(Cc3ccccc3)CC2)c(S(=O)(=O)N2CCOCC2)c1
→ -0.1%, -0.64, -0.53, -1%, 10%, 2%, -0.19, -7%, -6.7%, 0.37
CC(=O)N1CCCc2cc(S(=O)(=O)N3CCCC(C(=O)N4CCN(c5cc(C)ccc5C)CC4)C3)ccc21 (stereo not given)
→ 0.1%, nt, nt, nt, -19%, nt, nt, -4%, -1.2%, nt
O=C(Nc1nccs1)c1sc2cc(Cl)ccc2c1Cl
→ 0.2%, -0.78, -0.59, 15%, 9.5µM*, 8%, -0.13, 15%, 5.6%, -0.65
COc1ccc(/C=C2\Sc3ccc(C(=O)N4CCN(Cc5ccccc5)CC4)cc3N(C)C2=O)cc1OC
→ -0.2%, nt, nt, nt, -25%, nt, nt, 13%, 2.8%, nt
CC(C)(C)c1ccc(-n2ncc3c2CCCC3NC(=O)C2(C(N)=O)CC2)cc1 (stereo not given)
→ -0.2%, nt, nt, nt, -6%, nt, nt, ?, -4.5%, nt
O=[N+]([O-])c1cccnc1NCCNc1ncc(C(F)(F)F)cc1Cl
→ -0.1%, -0.45, -0.073, 11%, 1%, 2%, -0.4, 5%, 4.6%, 0.23
Cc1ccc2cccc(NS(=O)(=O)c3ccccc3)c2n1
→ -0.2%, nt, nt, nt, 84%*, nt, nt, 1%, -3.9%, nt
Oc1ccc2ccccc2c1N=Nc1ccccn1
→ -0.1%, -0.69, -0.097, 7%, 5.1µM*, 0%, 0.15, -1%, -10%, 0.27
C=CCSc1ncccc1C(=O)NCc1ccc(C)cc1
→ -0.1%, 0.59, 0.73, 7%, -11%, 1%, -0.037, 39%, 5.4%, -1.6
Cc1csc2ncnc(N3CCN(C(=S)Nc4ccc(F)cc4F)CC3)c12
→ 0.6%, -0.49, -0.29, -7%, -8%, -4%, -0.12, -30%, -2.4%, -0.29
O=C(N/N=C/c1c(O)ccc2ccccc12)c1cccnc1
→ 0.2%, nt, nt, nt, -40%, nt, nt, 10%, 12%, nt
COc1ccc2c(C#N)c3ccccn3c2c1
→ 0.7%, -0.35, 0.39, -2%, -24%[20 µM], 4%, -0.27, 49%, 2.1%, 0.96
C/C(=N\NC(=O)C(C)Oc1ccc([N+](=O)[O-])cc1)c1ccccn1 (stereo not given)
→ 0.1%, 1.5, 1.3, 20%, 3.2µM*, 17%, -0.22, -2%, -0.4%, -0.17
CCC(C)(C)c1ccc(Oc2ccc(N)cc2)cc1
→ 0.7%, 3, 2.4, 2%, 13%, 0%, 0.053, -4%, -4.8%, -2.8
c1ccc(CCc2nn3c(-c4ccncc4)nnc3s2)cc1
→ -0.1%, 1.1, 1.1, -12%, -43%, 0%, -0.15, -19%, 1.6%, -1.1
O=C(NC(NC(=S)Nc1ccc(Cl)cc1Cl)C(Cl)(Cl)Cl)c1cccc([N+](=O)[O-])c1 (stereo not given)
→ 0.3%, -0.15, -0.2, -2%, 9%, 5%, -0.23, -15%, 3.7%, 0.85
O=[N+]([O-])c1ccc(/C=N/N=C/c2ccc([N+](=O)[O-])o2)o1
→ 0.3%, -3.6*, -1.5*, 5%, -13%, 2%, 2.1*, -11%, 0.1%, 0.77*
Cc1ccc(-n2c(-c3ccc(Br)cc3)c[n+]3c2CCc2ccc4cccnc4c2-3)cc1
→ 5.2%, -2.7, -1.4, 18%, 12%, 8%, 0.21, 7%, -0.8%, -5.8
COc1ccc(NC(=O)/C(Cl)=C(/Cl)S(=O)Cc2ccc(Cl)cc2)cn1 (stereo not given)
→ -1.1%, -5.4*, -2.4*, 31%, 49%, 5%, 1.3*, 6%, 0.5%, -0.33*
O=C(/C(=C/c1ccc(Cl)cc1)c1nc2ccccc2[nH]1)c1ccccc1
→ 2.5%, -4.7*, -2*, -1%, 40%, 7%, 0.64*, -2%, 4.4%, -0.22*
O=[N+]([O-])c1ccc(O)c(/C=N/Nc2nc3ccccc3[nH]2)c1
→ -0.2%, -1.2, -0.69, 4%, -22%, -8%, -0.14, -2%, -5.3%, 0.85
COc1cc(NC(=O)COc2cc(O)c3c(c2)OC(C)(C)CC3=O)cc(OC)c1OC
→ -0.1%, nt, nt, nt, -5%[20 µM], nt, nt, 7%, -5.6%, nt
CCOc1ccc(Nc2ncnc3ccc([N+](=O)[O-])cc23)cc1
→ 0.7%, -0.79, -1, 40%, -7%, 14%, -0.25, -12%, 0.5%, 1.2
O=C(CSc1ccccc1)N1CCc2ccccc21
→ -0.1%, -0.55, -0.29, 6%, 20%, 9%, -0.37, -10%, -4.4%, 1.1
S=C(Nc1ccccc1)Nc1ccc(OCc2ccccc2)cc1
→ -0.1%, -0.13, -0.13, 7%, -15%, 7%, 1.1, -18%, -0.8%, -0.73
CC1CCN(C(=O)CCNC(=O)Cn2cnc3sc4c(c3c2=O)CCCC4)CC1
→ -0.1%, -0.053, -0.23, -3%, -12%, 4%, -0.22, -3%, 1.6%, 0.37
COc1ccc2[nH]cc(C(=O)CCl)c2c1
→ -1.9%, -0.78, 0.2, 6%, 25%, 3%, -0.1, 7%, -0.3%, -0.28
Cc1cccc(CS(=O)(=O)c2ncc(Cl)c(C(=O)Nc3nnc(C(C)C)s3)n2)c1
→ 1.0%, nt, nt, nt, 4%, nt, nt, 16%, 2.2%, nt
CCOC(=O)C(=Cc1ccc(-n2cncn2)cc1)C(=O)OCC
→ 0.5%, -6.8*, -3*, -6%, 2%, 6%, 1.6*, 10%, 1.8%, -0.41*
O=C(Oc1c(Cl)cc(Cl)c2cccnc12)c1ccco1
→ -0.2%, -0.42, 0.18, 5%, -49%, 8%, -0.22, -1%, -10%, -0.041
Cn1c(=O)c(C#N)c(-c2ccc(F)cc2)c2cc(C(=O)c3cc(Cl)cc(Cl)c3O)cnc21
→ 0.2%, -0.81, 0.16, nt, 3%, nt, -0.15, 4%, 5.9%, -0.33
O=c1cc(-c2ccccc2)nc2c(-c3ccccc3)c(C(F)(F)F)[nH]n12
→ 0.2%, 1.3, 0.59, -143%, 0%, 12%, -0.13, ?, -6.4%, -2.4
COc1ccc(-n2nnnc2S(=O)(=O)CC(=O)N2CCCCC2)cc1
→ -0.1%, -3.9*, -1.9*, 4%, 23%, 0%, 1.3*, -9%, -0.4%, -0.14*
CCOc1ccc(N=C2NC(=O)S/C2=C\c2ccc(OC)cc2)cc1
→ 0.0%, -0.55, 0.056, -13%, -26%, 0%, 0.082, 22%, -4.1%, 0.27
C=CCn1c(O)c(N=NC(=S)Nc2ccc(OC)cc2)c2ccccc21
→ -0.2%, 1.9, 2.9, 4%, 45%, 4%, -0.15, -10%, -5.1%, -1.7
Oc1[nH]c2ccccc2c1N=NC(=S)N1CCOCC1
→ 0.0%, 0.95, 0.45, 1%, 63%*, 1%, -0.25, -36%, -5.1%, -0.042
C=CCn1c(Oc2ccccc2F)nc2c1c(=O)n(C)c(=O)n2C
→ -0.2%, nt, nt, nt, -21%, nt, nt, 0%, 3.4%, nt
C=CC[n+]1c(-c2ccc(Cl)cc2Cl)csc1Nc1ccc(NC(C)=O)cc1
→ -0.3%, 0.27, 0.35, 7%, -42%, 6%, -0.23, 6%, -3.5%, -0.23
CCc1ccc(NC(=O)c2cnc(N3CCN(c4ccccn4)CC3)c3ccccc23)cc1
→ -0.5%, -0.94, -0.67, 3%, 6%, 4%, -0.39, 43%, -1.4%, 1.4
O=c1cc(-c2ccccc2Cl)oc2c(NS(=O)(=O)c3cc(Cl)cc(Cl)c3O)ccc(O)c12
→ -0.3%, 0.68, 0.83, 10%, -72%, 52µM*, 0.91, -11%, 0.4%, -2.3
O=C(Nc1nnc(SCc2ccc(F)cc2)s1)c1ccccn1
→ -0.2%, -0.3, 0.018, 18%, 4.5µM*, -10%, 1.1, 29%, -11%, -0.43
CCN(CC)c1ccc(N2C(=O)/C(=C/c3cccnc3)SC2=S)cc1
→ -0.1%, 0.64, 0.62, -8%, -31%, 2%, -0.015, -19%, 2.7%, -0.97
Cc1ccc(S(=O)(=O)N2CCN(c3ncnc4sccc34)CC2)cc1
→ -0.2%, nt, nt, nt, -18%, nt, nt, 0%, 0.7%, nt
O=C(CNC(=O)/C(=C/c1ccccc1)NC(=O)c1ccc(Br)cc1)OCc1ccccc1
→ -0.5%, 1, 0.86, 15%, 25%, -2%, -0.22, -8%, 6.5%, -0.83
Cc1ccc(NC(=O)c2ccccc2NS(=O)(=O)c2ccc(Cl)s2)cc1
→ -0.3%, -0.96, -0.92, -7%, -131%, 8%, -0.23, 12%, 16%, 0.78
Cc1cnc(NC(=O)C2CC(=O)N(c3cccc(Cl)c3)C2)s1 (stereo not given)
→ -0.2%, nt, nt, nt, 11%, nt, nt, -7%, -2.5%, nt
CCOc1ccc2nc(NC(=O)c3ccccn3)sc2c1
→ 0.0%, -0.66, 0.49, -5%, 6.5µM*, -19%, 0.12, 9%, -6.0%, -0.45
N#C/C(=C(/O)COC(=O)COc1ccc(Cl)cc1)c1nc2ccccc2[nH]1
→ 0.2%, -0.56, -0.094, 11%, 7%, 4%, 0.54, 28%, -0.3%, 0.071
CCCCCCCC[n+]1cccc2c3ccccc3ccc21
→ 0.6%, -1.6, -0.97, -221%, -23%, 30%, 0.14, 0%, 5.2%, 0.28

3 of the compounds above, in markdown:
| Molecule | GPR55 beta-arrestin | Dynein transport | Dynein transport nuclear GR-EGFP | M17LAP inhibition | KOR beta-arrestin-2 | M1AAP inhibition | Dynein transport cytoplasmic EGFP | AID2073 | KOR beta-arrestin-1 | Dynein transport cell count |
| --- | --- | --- | --- | --- | --- | --- | --- | --- | --- | --- |
| COc1ccc(-n2nnnc2S(=O)(=O)CC(=O)N2CCCCC2)cc1 | -0.1% | -3.9* | -1.9* | 4% | 23% | 0% | 1.3* | -9% | -0.4% | -0.14* |
| CCOc1ccc(N=C2NC(=O)S/C2=C\c2ccc(OC)cc2)cc1 | 0.0% | -0.55 | 0.056 | -13% | -26% | 0% | 0.082 | 22% | -4.1% | 0.27 |
| C=CCn1c(O)c(N=NC(=S)Nc2ccc(OC)cc2)c2ccccc21 | -0.2% | 1.9 | 2.9 | 4% | 45% | 4% | -0.15 | -10% | -5.1% | -1.7 |

Screens as filed in PubChem.
